gsp antagonist – antagonists of gsp mutant (McCune-Albright syndrome) | Potency, µM (highest dose often 76.9 µM), inactives show at the highest dose activity change, negative = inhibition, most hits filed as inhibitors | 0.4% of 340,000 active | AID 624288 | gsp-mutant cells, cAMP HTRF, 30 min; control for the full effect not named in the record; active = falling curve of any shape with a large fitted effect; inconclusive = falling curve, mostly with a smaller effect; inactive = flat or rising curve; cell line not stated here;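 further: intracellular cAMP measured with PDE inhibitor Ro 20-1724 present during compound exposure; potency means the concentration at half of the fitted maximal effect; on the % scale 0 is the no-effect control and ±100 the full control effect; nearly all actives have a fitted effect of over 65% in size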
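G418-selected cells were plated in DMEM/10% FBS for 16-24 h at 37C, then treated with compounds plus the PDE inhibitor […] (300 uM solution added) for 30 min at 37C. Intracellular cAMP was measured by HTRF after 30 min lysis at room temperature.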
Sfp inh – inhibitors of Bacillus subtilis Sfp phosphopantetheinyl transferase. Q9F4F7. AID 1490. 3.5% of 310,000 active. Potency, µM, for inactives: max response, negative = inhibition, hits mostly inhibitors. Biochemical Sfp PPTase activity, qHTS; active means well fitted inhibition curve with a large enough effect; inconclusive means small, poorly fitted or top-dose-only effect, or another doubt; inactive means no such curve, though single readings can be large or run the other way;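 further: the enzyme is Sfp with the accession as filed and its product quenches rhodamine fluorescence; potency means the concentration at half of the fitted maximal effect; 0% = enzyme reaction without inhibitor and -100% = no enzyme wells; top concentration of the series not given in the record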
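With Hepes-Na pH 7.6 buffer containing 10 mM MgCl2, Sfp (15 nM) modified BHQ-2-YbbR (12.5 uM) using rhodamine-CoA (5 uM). Two reads 30 minutes apart at 525/598 nm yielded each well's rate.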
gsp ag – agonists of gsp mutant (McCune-Albright syndrome). gsp mutant cells, cAMP HTRF, 30 min; control for the full effect not named in the record. Potency, µM (highest dose often 76.9 µM), without a hit: top-dose activation (cAMP increase), actives largely listed as activators. 0.13% of 340,000 active. AID 624287; active = well fitted activation curve with a large enough effect; inconclusive = small, poorly fitted or top-dose-only effect, or another doubt; inactive = no such curve, though single readings can be large or run the other way; cell line not stated here;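 further: phosphodiesterase inhibitor Ro 20-1724 added with compounds to block cAMP breakdown; potency means the concentration at half of the fitted maximal effect; nearly all actives have a fitted effect of over 60% in size; about a fifth of the inactives were tested at one dose only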
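Cells stably selected in G418 were plated at 2000/well, grown 16-24 hr, then given compounds in DMSO with the PDE inhibitor […] (300 uM solution added) for 30 min at 37C; cAMP was read by HTRF.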
TRPV1 PAM – potentiators of human vanilloid receptor 1 (TRPV1). Q8NER1. potentiation, % at 8.33 µM. TRPV1-expressing cells, Fluo-8 calcium influx, capsaicin EC20 potentiation; host cell line not named in the record; control for the full effect not named in the record. 0.02% of 320,000 active; active means potentiation above 80%; inconclusive means 30% to 80%; inactive means below 30%; further: 0% is about no effect
Target sequence (Q8NER1 whole entry, looked up): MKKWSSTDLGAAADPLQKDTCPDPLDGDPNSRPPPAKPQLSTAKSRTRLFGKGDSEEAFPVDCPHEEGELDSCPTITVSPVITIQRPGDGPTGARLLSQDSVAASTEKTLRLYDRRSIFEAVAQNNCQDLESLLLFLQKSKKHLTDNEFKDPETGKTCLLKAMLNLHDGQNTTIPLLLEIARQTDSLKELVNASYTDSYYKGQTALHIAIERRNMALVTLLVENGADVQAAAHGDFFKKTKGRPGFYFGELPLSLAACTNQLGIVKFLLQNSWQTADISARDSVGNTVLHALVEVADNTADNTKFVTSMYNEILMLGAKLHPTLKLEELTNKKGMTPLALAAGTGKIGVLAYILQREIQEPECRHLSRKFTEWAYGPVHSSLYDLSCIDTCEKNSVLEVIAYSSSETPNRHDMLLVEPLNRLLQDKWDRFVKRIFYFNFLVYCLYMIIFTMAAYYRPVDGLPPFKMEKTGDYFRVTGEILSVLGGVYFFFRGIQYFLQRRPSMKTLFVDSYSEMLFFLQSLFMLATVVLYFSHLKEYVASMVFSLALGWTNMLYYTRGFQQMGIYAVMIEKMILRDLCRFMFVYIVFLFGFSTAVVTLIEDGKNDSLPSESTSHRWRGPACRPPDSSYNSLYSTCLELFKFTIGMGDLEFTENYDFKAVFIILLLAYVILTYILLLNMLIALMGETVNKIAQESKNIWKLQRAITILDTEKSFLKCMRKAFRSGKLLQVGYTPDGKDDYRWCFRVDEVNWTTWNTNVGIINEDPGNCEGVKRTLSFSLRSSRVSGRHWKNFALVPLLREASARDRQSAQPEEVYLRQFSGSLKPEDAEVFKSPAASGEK
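Fluo-8 calcium influx in TRPV1-expressing cells, kinetic read (ex 480/em 520 nm). Compound added and read 3 min for agonist activity, followed by capsaicin at EC20 final and 2 min further read for enhancement.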
Menin-MLL FL inh – inhibitors of human menin-MLL interaction, wild-type MLL peptide. FP activity change, % at 61.4 µM. 290,000 tested, under 10 active. Fluorescence polarization, fluorescein-MLL peptide displacement from menin; inconclusive = falling polarisation curve, or a change in total fluorescence; inactive = total fluorescence flat and polarisation flat or rising; no compound was filed as active; the % refers to the polarisation; negative = inhibition;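 further: % of control where 0% means no effect; inhibitors lower the polarisation; unlabelled MLL peptide was the positive control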
CtBP-E1A blk – inhibitors of CtBP/E1A interaction | 0.49% of 340,000 active | activity change, % (concentration not given with the values) | AlphaScreen GST-E1A/His-CtBP binding, 1536-well; active compounds read low; control for the full effect not named in the record; in the data active means activity change below about -65%; inconclusive means about -30% to -65%; inactive means above about -30%; further: on the % scale 0 is the no-effect control and ±100 the full control effect
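Steps: dispense buffer (Tris pH 8.0, NaCl 300 mM, TCEP 1 mM, BSA, Tween 20); add 5X protein mix (GST-E1A, His-CtBP, 125 nM each); pin 23 nL compound; 2 h at 37 °C, dark; add 5X beads (50 ug/mL); 1 h; read.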
ClpP mod – qHTS Assay for Activators of ClpP. ATP-dependent Clp protease proteolytic subunit (Bacillus subtilis (strain 168)), P80244. purified B. subtilis ClpP, FRET peptide cleavage, 20 min. Potency, µM (series often up to 57.5 µM), for inactives: top-dose activity change, negative = active. 1.9% of 340,000 active; active = well fitted falling curve with a large enough effect; inconclusive = small, poorly fitted or top-dose-only effect; inactive = no such curve, though single readings can be large or run the other way; further: potency means the concentration at half of the fitted maximal effect; the source files actives as falling curves though it sought activators and does not explain the sign; nearly all actives have a fitted effect of over 65% in size; many hits overshoot -100%
Target sequence (P80244 whole entry, looked up): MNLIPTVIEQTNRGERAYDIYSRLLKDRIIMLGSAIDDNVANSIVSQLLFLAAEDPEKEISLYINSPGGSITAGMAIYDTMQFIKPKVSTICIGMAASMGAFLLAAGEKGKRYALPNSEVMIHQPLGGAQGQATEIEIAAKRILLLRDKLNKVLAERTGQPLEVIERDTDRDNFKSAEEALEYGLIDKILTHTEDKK
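FRET quenching reversal measured ClpP activation: 10 microg/mL B. subtilis ClpP at pH 8 with the FRET-FV decapeptide, read at 430 nm after 320 nm excitation. The 20-min minus 0-min signal was scaled between DMSO/no-enzyme wells and ADEP (5.8 microM final).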
Numbers without * were called inactive; ? = inconclusive; / = no result given; & = joins results of further samples; [ ] = another dose, or the depositor's remark. No enrichment for hits. About 5.3% of those tested had a hit in this group.

SMILES	gsp antagonist	Sfp inh	gsp ag	TRPV1 PAM	Menin-MLL FL inh	CtBP-E1A blk	ClpP mod
COC(=O)CC(NC(=O)Nc1ccc(C)cc1)c1cccc([N+](=O)[O-])c1 (stereo not drawn)	7.4%	5.4%	-14.9%	8.6	0.8	/	-3.3%
CCOc1ccc(Cc2noc3c2C(=O)CC(C)(C)C3)cc1OCC	1.2%	7.6%	-5.4%[15.4 µM]	14.9	0.1	-20.7	1.5%
Cc1ccn2cc(C(=O)Nc3ccc4c(c3)OCCO4)nc2c1	-4.4%	3.6%	-36.2%[inhibitor]	-15.5	0.0	48.7	3.8%
Cc1cc(C)nc(N/N=C/C2=C(N3CCOCC3)C(=C/c3ccccc3)/CC2)n1	28.2µM*	7.0%	7.3%	2.0	-0.2	5.4	-1.1%
CC(C)OP(=O)(OC(C)C)C(NC(=O)c1ccccc1)C(N)=O (stereo not drawn)	3.1%	22.3%	28.0%	-5.5	-0.9	7.1	/
CCCn1c(CNc2ccccc2O)nc2ccccc21	-15.3%	?	-4.8%	2.2	4.7	?	-0.6%
Cc1ccsc1C(=O)N1CCC(CO)(Cc2ccccc2)CC1	3.5%	3.6%	-38.3%[inhibitor]	3.1	1.2	-0.8	/
O=C(Nc1c2c(nc3ccccc13)CCCC2)c1ccccc1Br	-16.2%	-6.0%	3.3%[15.4 µM]	3.2	0.4	0.2	/
CCN1/C(=C2\C(=O)N(c3ccccc3)N=C2C)C=Cc2cc(C)ccc21	4.6%	18.0%	-7.6%[15.4 µM]	-7.2	4.4	4.2	/
c1ccc(-c2ccnc3nc(N4CCN(c5ccccc5)CC4)nn23)cc1	-16.4%	1.6%	1.5%	3.6	1.0	-0.3	-1.7%
Cc1ccccc1C(=O)c1cccn1CC(=O)NCCN1CCN(c2cccc(C)c2C)CC1	-6.7%	-4.7%	-17.1%	-6.3	4.5	-28.6	0.9%
Cc1c(Cl)c([N+](=O)[O-])nn1CC(=O)N1CCN(C23CC4CC(CC(C4)C2)C3)CC1	-5.2%	-27.9%	-34.0%[inhibitor]	6.9	-5.9	-28.1	/
O=C(CCNC(=O)c1ccccc1Cl)NCCC1=CCCCC1	8.3%	/	-35.2%[inhibitor]	-4.6	/	-2.6	-1.4%
Cc1cccc(NC(=O)CN2CCN(C(=O)CN3C(=O)NC4(CC(C)CC(C)(C)C4)C3=O)CC2)c1C (stereo not drawn)	2.9%	/	13.4%	/	/	4.9	-1.0%
O=C(NCc1ccccc1Cl)c1cnn2cccnc12	-0.4%	1.5%	?	1.3	5.2	0.6	-22.6%
NC(=O)NC(c1ccccc1)c1ccccc1	-2.9%	20.3%	-9.3%	20.7	-0.2	10.8	-2.1%
COc1cccc(-c2cc(C(=O)Nc3ccncc3)c3ccccc3n2)c1	-29.2%	2.8%	-46.8%[inhibitor]	-9.3	-3.9	5.5	12.6µM*
CCN(CC)S(=O)(=O)c1cccc(C(=O)Nc2cc(C)cc(C)c2)c1	-11.5%	6.6%	2.5%	4.4	2.6	-3.2	-3.1%
CN(c1ccc(OCC(=O)OCC(=O)Nc2ccc(OC(F)F)cc2)cc1)S(=O)(=O)c1cccs1	-1.7%	/	-0.1%	/	/	/	-0.8%
COC(=O)[C@@]1(C)[C@H]2C(=O)N(Cc3ccccc3)C(=O)[C@H]2[C@H]2CN=C(SCc3ccc(C#N)cc3)N21	2.2%	/	/	/	/	1.9	0.1%
CC(C)[C@@H](C(=O)N1CCNCC1)n1cc(CCO)nn1	16.5%	14.7%	/	-4.8	-2.5	11.7	-0.7%
COC(=O)c1c(NC(=O)C(C)C)sc(C(=O)N2CCOCC2)c1C	-2.7%	?	-21.3%	-5.9	1.3	11.4	/
CC1=CC2=NC(=O)/C(=C/c3cccs3)C(=N)N2O1	-12.3%	-5.3%	-4.7%[15.4 µM]	2.8	6.9	-2.3	/
Cc1ccc2oc(=O)n(Cc3ccc(F)cc3)c2c1	3.1%	14.8%	-1.8%[15.4 µM]	1.5	4.3	12.6	-0.4%
C[C@]1(C(=O)NCc2cc(F)cc(C(F)(F)F)c2)C=C[C@@H](Cc2ccccc2)N1C(=O)c1ccccc1	-16.9%	-1.7%&4.5%	/	-21.3	2.2&7.0	-9.9	0.1%
CCCNC(=O)CCCCn1c(=S)[nH]c2c([nH]c3ccc(OC)cc32)c1=O	1.6%	-9.5%	36.2%	?	-3.9	/	-14.1%
Cc1ccc(CNS(=O)(=O)c2cc3c4c(c2)C(C)C(=O)N4CCC3)cc1 (stereo not drawn)	4.2%	13.2%	?	?	/	2.8	-1.9%
COC(=O)c1cc2occc2n1CC(=O)Nc1ccc(OC)c(OC)c1	-1.5%	17.3%	10.9%	3.8	-0.8	12.1	-8.5%
CCOC(=O)c1ccc(N(C(=O)c2ccco2)C(C(=O)NC2CCCCC2)c2ccncc2)cc1 (stereo not drawn)	-0.8%	-2.7%	-15.0%[15.4 µM]	-6.8	0.7	-14.5	/
COc1ccccc1C1CC(c2c(-c3ccccc3)c3cc(Cl)ccc3[nH]c2=O)=NN1S(C)(=O)=O (stereo not drawn)	-14.0%	-24.6%	-43.5%[inhibitor]	5.2	?	4.0	7.7%
Nc1cccc(C#Cc2ccc3c(=O)c4ccccc4oc3c2)c1	1.9%	/	-5.8%	-6.5	/	5.2	0.2%
O=C(NCCC1=CCCCC1)C(=O)NCC1OCCCN1S(=O)(=O)c1cc(F)ccc1F (stereo not drawn)	-7.7%	16.3%	-32.7%[inhibitor]	-5.2	-1.7	-6.1	-2.3%
O=C(Nc1ccc(Cl)cc1)C1CC2CCCC(C1)C2=O (stereo not drawn)	8.9%	7.4%	11.5%	-16.1	1.7	1.9	-2.0%
COc1ccc(/C=C/C(=O)NC2CCCCC2C)cc1 (stereo not drawn)	3.5%	-1.1%	-21.2%	-1.2	-0.4	0.5	/
Cc1ccccc1S(=O)(=O)/N=C(/c1ccccc1)N1CCOCC1	12.0%	2.7%	35.2%[15.4 µM]	6.1	-4.2	0.3	/
COC(=O)c1ccccc1NC(=S)N(Cc1ccc2c(c1)OCO2)Cc1cc2ccc(C)cc2[nH]c1=O	-19.0%	2.3%	?	-3.1	1.4	-17.3	-0.8%
CCN(CCNc1ccc(Cl)cc1[N+](=O)[O-])C(=O)c1cc([N+](=O)[O-])c(N(C)C)cc1OC	?	5.8%	-23.5%	2.3	-0.9	-19.6	0.3%
O=C(Nc1ccccc1)c1nc[nH]c1C(=O)NCCCNC(=O)c1[nH]cnc1C(=O)Nc1ccccc1	-4.1%	/	17.0%	/	/	-2.2	-9.6%
COc1ccc(N(CC(=O)NCc2ccc(C)cc2)S(=O)(=O)c2c(C)nn(C)c2C)cc1	10.3%	19.0%	2.3%[15.4 µM]	6.2	1.8	-2.4	1.0%
O=C1CC(c2ccccc2)Cc2nc(N3CCc4ccccc43)ncc21 (stereo not drawn)	48.2%[activator]	/	-8.7%	/	/	6.6	-13.3%
CCN(CC)C(=O)/C(=C\c1ccncc1)NC(=O)c1ccccc1	15.2%	0.9%	7.8%[15.4 µM]	16.6	-0.8	1.8	/
CCN(CC(=O)NCc1cccs1)S(=O)(=O)c1ccc(NC(C)=O)cc1	3.6%	-6.3%	?	6.8	-1.8	/	-0.4%
Cc1ccc(C(=O)OCC(=O)NC2CCCC2)cc1	4.4%	8.3%	-14.3%	-19.5	0.5	/	-0.1%
CN1CCCc2cc(C#N)c(=O)[nH]c21	9.7%	13.5%	27.0%	/	6.0	0.5	-85.0%
O=C(NC(C(=O)c1ccccc1)c1ccccc1)c1ccccc1 (stereo not drawn)	-8.7%	/	?	/	/	4.1	/
COc1cc(/C=C/C(=O)OC(C)C(=O)Nc2ccc(Cl)cn2)ccc1OC(F)F (stereo not drawn)	-9.3%	/	3.5%[15.4 µM]	/	/	4.0	-0.3%
CCN1CCN(C(=S)Nc2ccc(Cl)c(Cl)c2)CC1	7.6%	-6.9%	20.0%	-4.3	4.5	17.4	-3.0%
O=C(c1ccco1)N1CCN(S(=O)(=O)c2ccc(Cl)cc2)CC1	5.5%	27.6%	0.7%[15.4 µM]	2.3	-0.5	1.8	0.3%
COc1ccc(NC(=O)COC(=O)c2ccc(OCc3ccc(Cl)cc3Cl)c(OC)c2)c(OC)c1	-23.9%	11.4%	-68.2%[inhibitor]	-5.3	1.3	1.7	-0.5%
COC(=O)c1ccccc1NC(=O)Nc1cc(C)ccn1	-14.2%	19.9%	8.2%	5.9	-7.8	/	3.9%
The listing continues.
SMILES	gsp antagonist	Sfp inh	gsp ag	TRPV1 PAM	Menin-MLL FL inh	CtBP-E1A blk	ClpP mod
O=S(=O)(Cc1ccccc1)Cc1cnc(Cl)s1	6.7%	11.1%	-3.7%[15.4 µM]	13.7	3.4	3.7	/
Cc1ccc(S(=O)(=O)NNC(=O)c2ccncc2)cc1	11.4%	-18.4%	10.0%	27.0	1.4	5.5	0.9%
CCN(CC)S(=O)(=O)c1ccc(C(=O)NNC(=O)c2csc(N3CCOCC3)n2)cc1	9.4%	/	-10.2%[15.4 µM]	-13.0	/	9.4	0.9%
COc1ccccc1C(=O)NCC(c1ccco1)N1CCc2ccccc21 (stereo not drawn)	?	/	-18.3%[15.4 µM]	-23.4	/	-14.3	/
CC(C)c1c(C(=O)N/N=C/c2ccoc2)nnn1-c1nonc1N	-10.6%	10.1%	-9.2%	-26.1	/	/	1.1%
O=C1/C(=C/c2ccncc2)SC(=S)N1Cc1ccccc1	-14.8%	?	5.6%[15.4 µM]	-8.9	4.9	-13.1	1.0%
CS(=O)(=O)c1nc2ccccc2n1Cc1ccccc1	-12.1%	17.0%	-53.6%[inhibitor]	3.7	0.1	12.5	-1.6%
Cc1nn(C)c(C(=O)Nc2ccc(Cn3cccn3)cc2)c1[N+](=O)[O-]	9.6%	-7.9%	-26.4%	-25.1	5.4	-12.5	0.5%
c1ccc(-n2nnnc2NC2CCCCCC2)cc1	3.3%	19.0%	-16.5%	-13.5	0.0	10.8	0.4%

Compound activity (PubChem)
